Screening data: PubChem BioAssay, Broad Institute
Tg IFNy HTS: blocks Toxoplasma gondii growth in the presence of IFN-gamma; Toxoplasma gondii growth in IFN-gamma-treated host cells; active compounds read low; reference of the scale not given here; activity change, negative = inhibition, %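 (about 20 µM by stock and volumes)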; hit rate 3.8% among 69,000;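 active = below -70%; inconclusive = fit judged invalid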;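 also: host cells are HeLa cells infected with Toxoplasma gondii; parasite growth read as luciferase light; one replicate is shown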
* hit, by the source's call; ? = inconclusive.

SMILES | Tg IFNy HTS
O=C(CN1CCN(C(=O)c2ccco2)CC1)Nc1cccc2ccccc12 | 13
CC(C)c1ccc(S(=O)(=O)N2CCc3nc(-c4ccccc4)sc3C2)cc1 | -98*
CC(=O)N1CCC2(CC1)c1ncc(C)n1CCN2C | -28
O=C(COc1ccccc1F)NCCc1csc(-c2ccc(F)cc2)n1 | 7
CCc1nc(OCC(=O)Nc2ccc3c(c2)OCO3)c2ccccc2n1 | -2
COc1ccc(-c2cncc(C(N)=O)c2)cn1 | 81
CCc1nc(C)c(C(=O)N2C[C@@H]3[C@H](C2)[C@H]2CC[C@@H]3O2)o1 | -4
N[C@@H]1CC[C@@H](NS(=O)(=O)c2c(Cl)cccc2Cl)C1 | -2
Cc1[nH]c(=O)[nH]c(=O)c1CSCC(=O)OCC(=O)Nc1ccc(Br)cn1 | 8
CN1CC2(CCN(C(=O)c3cc(-c4ccccc4)nc4ccccc34)C2)OC1=O (stereo unspecified) | 0
Cc1ccc(-c2ccc(S(C)(=O)=O)cc2)cn1 | -4
O=C(O)c1cccnc1CN1CCN(C/C=C/c2ccccc2)CC1 | 1
CCOC(=O)c1ccc(NC(=O)C2=C(C)C(=O)OC23CCN(CC)CC3)cc1 | 191
CN1C(=O)CC(N2CCN(C/C=C/c3ccccc3)CC2)C1=O (stereo unspecified) | -58
CCC(CC)C(=O)N1C[C@@H]2CN(c3ncccn3)CC[C@H]2C1 | -17
CN1c2ccc(-c3ccccc3F)cc2[C@H]2[C@H](CCN2C(=O)Nc2cc(F)ccc2F)[C@H]1CO | -3
COCCN1C[C@H]2COC[C@@H](C(=O)N3CCCO3)[C@H]2C1 | -47
COc1ccc(-c2nc(C)c(CCNS(=O)(=O)c3cc(F)ccc3F)s2)cc1OC | 476
CCS(=O)(=O)Nc1ccc2c(c1)C(=O)N(C)[C@@H]1CC[C@H](CC(=O)NCc3ccccc3F)O[C@@H]1CO2 | 4
COc1cccc(-c2nc3cnccn3c2NCCC(=O)N2CCC3(CC2)OCCO3)c1 | -26
CN(CC1CCCCO1)C(=O)c1ccc(CN2CCCC2)o1 (stereo unspecified) | -15
O=C1[C@@H]2CSCN2C(=O)CN1Cc1ccc(F)cc1 | -3
CCN1C(=O)CCc2cc(NC(=O)c3sccc3C)ccc21 | 270
COc1ccc(NC(=O)c2ccccc2Sc2ccccc2COC(C)=O)cc1 | 67
CC(=O)N1CCC[C@H]1C(=O)N[C@@H](Cc1cnc[nH]1)C(=O)N[C@@H](CO)C(=O)N[C@@H](CS)C(=O)N[C@@H](CC(N)=O)C(N)=O | 15
Remaining list, next part
SMILES | Tg IFNy HTS
CCS(=O)(=O)N1CC2(C1)CN(S(=O)(=O)c1cccc(OC)c1)[C@H](CO)c1[nH]c3cc(OC)ccc3c12 | -23
Cc1ncccc1C(=O)N1CCc2c(c(C(=O)O)nn2C)C1 | 3
O=C(Oc1ccc(Cl)cc1)c1snnc1-c1ccccc1 | -78*
CS(=O)(=O)N1CCn2cc(Cn3cncn3)nc2C1 | -67
Cc1ccc(C(=O)Nc2sc3c(c2C(N)=O)CCC3)cc1C | 180
Cc1ccc(CN2CC[C@@H]3CN(Cc4cccnc4)CCO[C@@H]3C2)o1 | -1
CN(CC(=O)c1ccc(O)cc1)C(=O)C1=NNC(=O)CC1 | -1
N#Cc1c(Cl)cccc1-n1cccc1 | 42
COc1nc(C)cnc1NS(=O)(=O)c1cccnc1-c1ccc(-c2nnco2)cc1 | 16
Cc1nc2c(c(=O)[nH]1)CCN(C(=O)Cn1cnc3ccccc3c1=O)C2 | -4
CN(C)CC(=O)N1[C@@H](C#N)[C@H](c2ccc(C#CC3CCCCC3)cc2)[C@@H]1CO | 6
CS(=O)(=O)N1CC2C[C@@H](F)[C@H](O)C2C1 (stereo partly specified) | 3
Cc1cc(-n2nc(-c3cccc(C(F)(F)F)c3)cc2N)nc2c1c(C)nn2C | -17
O=C(Cc1ccc2c(c1)OCO2)N1CCC(c2nc(-c3ccsc3)cc(=O)[nH]2)CC1 | -80*
Cc1cc(NC(=O)c2nc(-c3cccc(F)c3)n3c2CCCCC3)no1 | 236
O=C(Cc1ccc2c(c1)CCCO2)Nc1ccccc1OCCc1ccccn1 | 8
Cc1nc(CN2C[C@@H]3CN(CC4CC4)C[C@H]3C2=O)cs1 | 3
O=C(C1CC(=O)N(c2ccccc2F)C1)N1CCC(O)(c2ccccn2)CC1 (stereo unspecified) | -8
Cc1nc(C)c(C(=O)N2CCC(c3ccc(Nc4ncccn4)cn3)CC2)o1 | -15
COc1ccc(-c2nc3c(s2)CN(S(=O)(=O)c2ccccc2C)CC3)cc1 | -115*
Cc1nc(-c2cccc(F)c2)sc1CCNC(=O)c1cccc(C(F)(F)F)c1 | 9
COc1ccc(-c2nc(CN3CCCC3c3ccccn3)c(C)o2)cc1 (stereo unspecified) | 7
CCN(Cc1ccccc1F)C(=O)[C@H](N)CC(C)C | 2
Cc1ccc2[nH]c(=O)c(CN(C)CCCc3nccn3C)cc2c1 | -1
CCOc1ccc(-c2nc(CN(c3cccc(OC)c3)S(=O)(=O)c3ccccc3)c(C)o2)cc1 | -43

16 successive entries from above, for reference:
SMILES | Tg IFNy HTS
CCS(=O)(=O)N1CC2(C1)CN(S(=O)(=O)c1cccc(OC)c1)[C@H](CO)c1[nH]c3cc(OC)ccc3c12 | -23
Cc1ncccc1C(=O)N1CCc2c(c(C(=O)O)nn2C)C1 | 3
O=C(Oc1ccc(Cl)cc1)c1snnc1-c1ccccc1 | -78*
CS(=O)(=O)N1CCn2cc(Cn3cncn3)nc2C1 | -67
Cc1ccc(C(=O)Nc2sc3c(c2C(N)=O)CCC3)cc1C | 180
Cc1ccc(CN2CC[C@@H]3CN(Cc4cccnc4)CCO[C@@H]3C2)o1 | -1
CN(CC(=O)c1ccc(O)cc1)C(=O)C1=NNC(=O)CC1 | -1
N#Cc1c(Cl)cccc1-n1cccc1 | 42
COc1nc(C)cnc1NS(=O)(=O)c1cccnc1-c1ccc(-c2nnco2)cc1 | 16
Cc1nc2c(c(=O)[nH]1)CCN(C(=O)Cn1cnc3ccccc3c1=O)C2 | -4
CN(C)CC(=O)N1[C@@H](C#N)[C@H](c2ccc(C#CC3CCCCC3)cc2)[C@@H]1CO | 6
CS(=O)(=O)N1CC2C[C@@H](F)[C@H](O)C2C1 (stereo partly specified) | 3
Cc1cc(-n2nc(-c3cccc(C(F)(F)F)c3)cc2N)nc2c1c(C)nn2C | -17
O=C(Cc1ccc2c(c1)OCO2)N1CCC(c2nc(-c3ccsc3)cc(=O)[nH]2)CC1 | -80*
Cc1cc(NC(=O)c2nc(-c3cccc(F)c3)n3c2CCCCC3)no1 | 236
O=C(Cc1ccc2c(c1)CCCO2)Nc1ccccc1OCCc1ccccn1 | 8

Next section.
SMILES | Tg IFNy HTS
CN1C(=O)c2cc(NC(=O)c3ccc(C#N)cc3)ccc2OC[C@H]2O[C@@H](CC(=O)Nc3cc(F)ccc3F)CC[C@@H]21 | -9
CCS(=O)(=O)N1[C@H](CO)[C@H](c2ccc(-c3cccc(F)c3)cc2)[C@@H]1C#N | 6
COC(=O)c1cc(=O)n2c(-c3cccs3)nnc2s1 | 59
CCOc1cccc2sc(NC(=O)CCn3c(=O)oc4cc(Cl)ccc43)nc12 | -46
Cc1ccc(NC(=O)Cn2c(=O)ccc3cc(S(=O)(=O)N4CCC(C)CC4)ccc32)cc1Cl | -93*
CC(=O)Nc1ccc(C23CC4CC(CC(C4)C2)C3)c(C)c1 | -57
C=CCO[C@@H]1CCN(Cc2csc(C)n2)[C@H]1Cc1cccnc1 | -22
CC(C)(CO)C(O)C(=O)NCCC(=O)NCCSSCCNC(=O)CCNC(=O)C(O)C(C)(C)CO (stereo unspecified) | 13
CN1C(=O)c2cc(NC(=O)Nc3ccccc3Cl)ccc2OC[C@@H]2O[C@@H](CC(=O)O)CC[C@@H]21 | -34
OC(CN1CCCC(O)(c2ccc(F)cc2)CC1)c1ccc(F)cc1 (stereo unspecified) | -11
O=C(c1cc(-c2ccn(C3CCCC3)n2)n2ccccc12)N1CCCC(O)C1 (stereo unspecified) | 29
Cc1nc2ccc(C(=O)O)cc2c2c1CC(C)S2 (stereo unspecified) | -25
Cc1ccc2nc3c(cc2c1)c(=O)oc1ccccc13 | 11
CCCn1nccc1C(=O)NCc1cc(F)cc2c(C)c(C)[nH]c12 | -33
Clc1ccc(C2=NN(c3ccc(Cl)cc3)C(c3ccc(Br)cc3)C2)cc1 (stereo unspecified) | 178
O=C(Nc1ccccc1)OCC1CCCN2CCCCC12 (stereo unspecified) | 39
CC(C)OCc1nnc(SCC(=O)O)n1C | -5
CO[C@H]1CN(C)C(=O)c2ccc(NC(=O)NC(C)C)cc2OC[C@H](C)N(Cc2ccc(-c3ccccn3)cc2)C[C@@H]1C | -27
CCOc1ccc(NC(=O)C(Cc2cccc(C)c2)c2nn[nH]n2)cc1 (stereo unspecified) | 16
O=C1COc2ccc(C(=O)CSc3nc(-c4ccc(Cl)cc4)cs3)cc2N1 | -57
c1ccc2sc(N3CCN(Cc4cc5n(n4)CCCNC5)CC3)nc2c1 | -2
CC(C)NC(=O)N1CC[C@@H]2Oc3ccccc3S(=O)(=O)N(CC3CC3)[C@@H]2CC1 | -5
CCc1ccccc1NC(=O)Cn1ncc2c(N3CCC(C)CC3)ncnc21 | 142
O=C(NCC1(O)CCNC1)C1CCN(C(=O)c2ccccn2)CC1 (stereo unspecified) | 2
COc1cc(-c2coc3cc(O[C@@H]4O[C@H](CO)[C@@H](O)[C@H](O)[C@H]4O)c(OC)c(O)c3c2=O)cc(O)c1OC | 82
The list continues.
SMILES | Tg IFNy HTS
CC(C)C(=O)N1CCCC(c2nc(-c3cccs3)cc(C(F)(F)F)n2)C1 (stereo unspecified) | -2
COCCO[C@@H]1CCN(C(=O)c2cnccn2)[C@H]1Cc1ccccc1 | 53
CCn1c(C2CCCNC2)nn(Cc2cc(OC)ccn2)c1=O (stereo unspecified) | -4
Cc1nc(-c2ccc(F)cc2)sc1CCNC(=O)c1cccc(Br)c1 | -13
CCCCC1C=CCN1C(=O)c1cccc(C#CC(C)(C)O)c1 (stereo unspecified) | 18
CCc1cccc2c(C#N)cn(CC(=O)NCc3cccs3)c12 | 101
Cc1noc(C)c1CNC(=O)C(O)c1ccc(C(F)(F)F)cc1 (stereo unspecified) | 69
C[C@@H]1CN([C@@H](C)CO)C(=O)c2cccc(NC(=O)c3ccncc3)c2O[C@@H]1CN(C)Cc1ccc2c(c1)OCO2 | 24
CCOC(=O)CSc1nnc(OCC)n1-c1ccccc1 | 98
COCCc1noc(C2CCCCN2C(=O)c2cnn3c2CCCC3)n1 (stereo unspecified) | 64
COC(=O)c1cccc(NC(=O)N2CCC(c3nc(C(=O)N(C)C)c(C)o3)CC2)c1 | 55
COC(=O)c1coc(CN2CCCC3(CC2)CN(C)C(=O)O3)n1 (stereo unspecified) | -43
CCc1cccc(NS(=O)(=O)c2cc3c4c(c2)CCN4C(=O)CC3)c1 | -81*
CN(c1ncccn1)C1COC2(CCCN(c3ncccn3)C2)C1 (stereo unspecified) | -4
CCOc1ccc(C2c3[nH]c4ccccc4c3CCN2C(=O)CCc2ccccc2)cc1 (stereo unspecified) | ?
O=C(Nc1ccc(F)cc1)N1C[C@@H]2C[C@H](C(=O)N3CCOCC3)[C@@H](C1)O2 | 5
CN(C)CC(=O)N1CC2(C1)[C@@H](c1ccccc1)[C@H](CO)N2C(=O)C1CC1 | -57
COc1ccc2c3c([nH]c2c1)[C@H](CO)N(C(C)=O)CC31CN(C(=O)CN2CCOCC2)C1 | 181
CCn1c(=O)c(-c2nc(-c3ccccc3OC)no2)c(O)c2cc(F)ccc21 | -33
COc1ccc(CN2C(=O)CSC2c2cccnc2)cc1 (stereo unspecified) | -45
CNC(=O)c1cc2c(nc1N(C)C)CCN(CCc1ccccc1)CC2 | -10
Fc1cccc(Cl)c1Cn1nnc(N2CCCCC2)n1 | -23
CN(C)c1cc(NC(=O)CN2CCOCC2)c2ccccc2n1 | 25
CC(=O)Nc1ccc(Cl)c(C(=O)N2CCS(=O)(=O)CC2)c1 | -5
C=C(C)Cn1c(NCCOC)nc2c1c(=O)[nH]c(=O)n2C | 0
More results follow:
SMILES | Tg IFNy HTS
C=CCN1C(=O)CC2(CCN(C(=O)c3ccno3)CC2)c2ccccc21 | -9
COc1ccc(C(=O)Nc2n[nH]c(CSc3nc4ccccc4s3)n2)cc1 | 24
O=C(NCCc1csc(-c2ccccc2)n1)[C@H]1CCCN1C(=O)c1ccc(Br)cc1 | 15
COc1ccc2c(c1)NC1(CCN(C(=O)Nc3ccc(F)cc3F)CC1)c1cccn1-2 | 136
CCCCS(=O)(=O)N1CC(n2nc(-c3ccccc3)ccc2=O)C1 | -37
COC(=O)c1ccccc1NC(=O)COc1nc(C)nc2ccccc12 | 6
C[C@H](CO)N1C[C@H](C)[C@@H](CN(C)Cc2ccc(Cl)c(Cl)c2)OCCCC[C@H](C)Oc2ccc(NS(=O)(=O)c3cccs3)cc2C1=O | -173*
COc1ccc(CNc2n[nH]c(=S)s2)cc1 | 408
CN(C)C(=O)COC[C@@]12COC[C@@H]1CN(CC1CCC1)C2 | 27
CCC1CCCCN1C(=O)CCNc1c(-c2cccc(C)c2)nc2cnccn12 (stereo unspecified) | 174
Clc1ccc(-c2nc(NCc3cccs3)c3ccccc3n2)cc1 | -52
COc1cc(NC(=O)Nc2ccc(Cl)cc2)c(-n2c(C)ccc2C)cc1OC | 166
C[C@@H]1CCCn2nncc2COCCNC1=O | 58
CN1CC(=O)N(c2cccnc2)CC12CCN(c1ncc(F)cn1)C2 (stereo unspecified) | 5
Cc1cc(-c2cccc(O)c2)nc(-c2ccccc2O)n1 | -20
CC(C)C(=O)NCCc1csc(C2CCCN(C(=O)/C=C/c3cccs3)C2)n1 (stereo unspecified) | -35
N#C[C@@H]1[C@@H](c2ccc(C3=CCCCC3)cc2)[C@H](CO)N1S(=O)(=O)c1ccccc1 | -15

An excerpt (hit frequency here may not be typical).
